ALR H2O2 inh – human ALR oxidase inhibition via reduced H2O2; purified ALR, DTT oxidation, H2O2 HRP-luminol luminescence; inhibition, % (no concentration beside the values); 3.8% of 290,000 active; AID 485317;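 active means mean and each replicate at 75% or more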;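 further: stock transfer was 7.5 nL into about 7.5 µL; 0% = neutral wells and 100% = wells with inactivated enzyme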
Target sequence (P55789 whole entry, looked up): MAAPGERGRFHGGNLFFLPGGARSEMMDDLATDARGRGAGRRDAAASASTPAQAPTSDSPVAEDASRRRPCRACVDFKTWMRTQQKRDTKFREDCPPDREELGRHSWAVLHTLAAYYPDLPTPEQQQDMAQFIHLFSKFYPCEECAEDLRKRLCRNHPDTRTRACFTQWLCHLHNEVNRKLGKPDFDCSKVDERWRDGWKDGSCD
T cruzi repl – blocks replication of Trypanosoma cruzi; T. cruzi beta-gal in NIH3T3, luminescence, 90 h; inhibition, % (no concentration beside the values); 1.4% of 300,000 active; AID 1885;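 active means mean inhibition across valid replicates above about 55%, limit read from the data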;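 further: signal also drops with host cell toxicity which is not excluded here; 0% = plate median of DMSO wells and 100% = zero luminescence signal; higher percent means less beta-gal luminescence so fewer parasites; stock transfer was 50 nL into about 50 µL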
Ecoli rRNA inh – inhibitors of bacterial rRNA selective over humanized ribosomes. E. coli WT GFP vs humanized-ribosome RFP mutants, fluorescence, 24 h; hits give low values; DMSO median 0, no signal -100. GFP signal change (wild-type ribosome), % (no concentration beside the values). 1.6% of 350,000 active;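 active means significant combined selectivity score with lowered wild-type GFP, culture density cut under 30%, mutant RFP and density less affected; inactive means any of these conditions unmet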; further: one replicate is shown; some compounds called inactive have numbers as strong as hits
Calb FLC – affects C. albicans growth with fluconazole | 0.57% of 300,000 active | C. albicans CaCi-2 (fluconazole-resistant clinical isolate) + fluconazole, Alamar Blue growth, 48 h | AID 1979 | growth inhibition, % (test concentration not listed);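 active means most replicates above 75%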;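 further: all wells also contain fluconazole at 8 µg/ml as a sub-toxic cotreatment; 0% = median of DMSO wells and 100% = median of geldanamycin control wells; wells of about 8 µL received 7.5 nL stock; the first replicate is given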
Beta apoptosis – blocks beta cell apoptosis; protection from apoptosis, % (no concentration beside the values); AID 435005; 0.8% of 300,000 active; INS-1E cytokine-induced death, ATP luminescence, 48 h; percent of positive-control rescue, neutral wells zero;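 active means all replicates at 75% or more, or half of them and the mean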;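 further: 0% = cytokine-treated negative control wells and 100% = positive control rescue; higher means more ATP so stronger rescue from cytokine killing; wells of about 40 µL received 100 nL stock; the first replicate is given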
LANA-H2A inh – blocks KSHV LANA binding to histone H2A/H2B | Q9QR71 | cell-free LANA-H2A/H2B peptide, fluorescence polarization | inhibition, % (concentration not given with the values) | 0.6% of 320,000 active; in the data active means inhibition mostly above about 10%, no sharp cut-off; inactive means mostly below about 6.7%;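 further: stock transfer was 7.5 nL into about 10 µL; 0% = median of vehicle wells and 100% = median of positive control wells; one replicate is shown; the record names a cut of 25% in any replicate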
B2AR ag – human beta-2 adrenergic receptor agonism by FAP. P07550. Am2.2-beta2AR cells, FAP receptor internalization, flow cytometry; reference of the scale not given here. response, % (test concentration not listed). 0.43% of 340,000 active;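 active means response above a set limit, near 3 SD of response in nonfluorescent compounds, cut at about 42% in these data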;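 further: stock transfer was 100 nL into about 11 µL; a reference agonist was the positive control; negative values mostly stem from fluorescent compounds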
Target sequence (P07550 whole entry, looked up): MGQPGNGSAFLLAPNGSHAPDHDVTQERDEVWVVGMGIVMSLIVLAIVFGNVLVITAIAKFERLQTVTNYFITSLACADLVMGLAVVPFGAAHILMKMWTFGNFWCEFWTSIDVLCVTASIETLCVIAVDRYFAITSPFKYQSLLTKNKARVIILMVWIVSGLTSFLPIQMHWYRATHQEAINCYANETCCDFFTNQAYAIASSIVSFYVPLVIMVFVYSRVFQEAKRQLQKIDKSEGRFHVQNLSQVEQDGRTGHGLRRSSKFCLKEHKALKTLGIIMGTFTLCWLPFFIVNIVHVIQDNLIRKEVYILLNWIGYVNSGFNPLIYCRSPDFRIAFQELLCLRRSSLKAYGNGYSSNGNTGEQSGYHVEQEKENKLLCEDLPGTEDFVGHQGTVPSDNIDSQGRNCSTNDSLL
A1 inh – inhibitors of the anti-apoptotic protein A1, read as caspase activation; AID 2462; 0.066% of 330,000 active; caspase activation, % (concentration not given with the values); MEF A1-2A-BIM cells, Caspase-Glo 3/7 luminescence, 3 h; percent of clofoctol response, vehicle zero;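 active means over half of replicate activation scores above 10%, or exactly half above 10 with the replicate mean above 10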;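 further: wells of about 30 µL received 50 nL stock; many hits fall short of the cut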
Ecoli rRNA inh OD600 – second read-out of Ecoli rRNA inh, no call of its own (marks repeat the call); OD600 change, %; measured here: OD600 growth;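 optical density of the mix in the first replicate; 0 = DMSO median and -100 = no signal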
Ecoli rRNA inh RFP – further read-out of Ecoli rRNA inh, marked with its call; RFP signal change, %; measured here: RFP humanized mutant strains;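 first replicate; 0 = DMSO median and -100 = no signal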
* = called active by the depositor; / = no result given. A portion of the library; the hit share may differ from the screen's.

Results follow in this order: ALR H2O2 inh, T cruzi repl, Ecoli rRNA inh, Ecoli rRNA inh OD600, Ecoli rRNA inh RFP, Calb FLC, Beta apoptosis, LANA-H2A inh, B2AR ag, A1 inh
> Cc1ccccc1NC(=S)N1CCN(c2ccccc2C)CC1
  /, -14, -6, -1, -7.1, 10, -1, 2.3, 1, -0.1
> CC(C)CNC(=O)C(=O)Nc1cc2c3c(c1)C(C)C(=O)N3CCC2 (configuration not stated)
  -4, 1, 2, 5, -2.6, 25, 2, -3.3, -3, 0.0
> CCOc1ccc(N(CC(=O)NCc2ccccc2)C(=O)CCC(=O)Nc2nccs2)cc1
  -3, 4, 3, 5, -6.2, 6, 0, 1.9, 12, 0.2
> CCOc1ccccc1NC(=O)CN1CCN(Cc2ccccc2)CC1
  /, -12, 7, 1, 1.1, -3, -3, -2.6, -8, 0.5
> C=CCc1ccccc1OCC(O)CN1CCN(c2ccccc2OC)CC1 (configuration not stated)
  20, 7, 1, -8, -0.6, 6, 0, -5.9, -13, 0.1
> O=C(Nc1ccc(-c2cn3c(n2)SCC3)cc1)c1ccco1
  4, /, /, /, /, 2, -10, -4.2, 12, -1.1
> c1ccc(-n2nnnc2Sc2ncnc3sc4c(c23)CCCC4)cc1
  38, -11, /, /, /, -3, 1, 4.2, -4, -0.3
> CC1(C)Cc2ccccc2-c2nnc(C(F)(F)F)n21
  -1, -4, /, /, /, -10, /, 3.4, 10, 1.1
> COCc1c(C(=O)N/N=C/c2ccncc2)nnn1-c1nonc1N
  3, 1, 8, 8, -3.2, -13, -2, -2.8, 21, 0.0
> c1coc(-c2ccnc3nc(-n4cccc4)nn23)c1
  18, 7, -11, -12, -1.1, 7, -1, -7.6, -14, 0.9
> CCCCNC(=O)CN(c1cccc(Br)c1)S(C)(=O)=O
  -5, /, /, /, /, -3, -5, 0.8, -4, 0.6
> COc1cccc(OC)c1OCCCCN1CCC(Cc2ccccc2)CC1
  -28, 49, -8, -18, 0.1, -26, 8, 0.7, -3, 0.2
> O=C(O)C1Cc2ccccc2-c2ccccc2C1
  28, -1, 3, -3, -0.1, -2, -4, 1.4, 15, 1.8
> Cc1nc2sccn2c(=O)c1S(=O)(=O)NCc1ccccc1Cl
  -7, 0, 6, 10, -5.3, -1, -2, 4.0, -3, -0.3
> C#CCOCCOCCOCCNc1nc(N2CCN(C(=O)[C@H](Cc3ccc(O)cc3)n3cc([C@@H](N)CC(C)C)nn3)CC2)nc(N2CCN(C(=O)[C@H](Cc3ccc(O)cc3)n3cc([C@@H](N)CC(C)C)nn3)CC2)n1
  /, -17, /, /, /, 14, -10, -4.2, /, 1.1
> Cn1nc(N)c2c(-c3ccccc3)c(C#N)c(N)nc21
  -1, 5, /, /, /, -5, -2, 1.9, 3, -0.6
> CC1CCCCC12NC(=O)N(CC(=O)NCc1ccccc1Cl)C2=O (configuration not stated)
  19, /, 7, 6, 2.8, /, -14, -1.8, -4, -2.4
> CN(C)c1ccc(NC(=O)CSc2nnc(-c3ccco3)c(-c3ccco3)n2)cc1
  /, 16, -15, -8, 0.9, -9, 3, -12, -13, -0.3
> O=C(N1CCN(c2ccccc2)CC1)C1(c2cccs2)CCOCC1
  66, -2, /, /, /, -1, -1, -4.7, -4, 0.5
> O=C(CCNS(=O)(=O)c1ccc(OC(F)(F)F)cc1)N1CCN(C/C=C/c2ccccc2)CC1
  1, 20, -66, -82, -21, 14, 9, 0.1, -8, -0.1
> O=C(O)CCCCCNS(=O)(=O)c1ccc2c3c(cccc13)C(=O)N2
  -30, -20, 3, 8, -1.7, -2, /, -3.5, 3, 0.9
> CN(C)CCCN(C(=O)c1ccc(Br)s1)c1nc2cc3c(cc2s1)OCO3
  2, 40, 4, 0, 7.7, -17, 1, -4.0, 3, 0.3
> COc1cccc(NC(=O)N2CCC(NC(=O)C3CCCCC3)CC2)c1
  -3, 5, 10, 13, 0.7, -6, -5, -2.8, -2, -0.4
> COc1ccc(OC)c(C2C(C(=O)O)c3ccccc3C(=O)N2C)c1 (configuration not stated)
  3, -7, /, /, /, 5, -2, -0.8, 5, 0.6
> CC1CCCC(C)N1S(=O)(=O)c1ccc(S(=O)(=O)N2CCOCC2)cc1 (configuration not stated)
  -1, -4, 11, 17, 5.8, 2, -2, -0.4, 2, 0.0
> CNC(=O)c1ccsc1NC(=O)CS(=O)(=O)c1ccc(Cl)cc1
  34, -8, -13, -4, 5.2, 3, 2, 3.9, /, 0.2
> O=C(CSc1nc2cc([N+](=O)[O-])ccc2n1-c1ccc(F)cc1)NC1CCS(=O)(=O)C1 (configuration not stated)
  -26, -7, /, /, /, 3, -3, -3.3, -7, -0.1
> Cc1cc(C(=O)COC(=O)c2ccc[nH]c2=O)c(C)n1C
  2, -31, 10, 10, 4.2, 17, -3, 1.0, -5, 0.2
> O=C(Nc1nnc(CCc2ccccc2)s1)c1ccccc1
  -6, 10, 7, 9, 0.4, 15, 1, 2.9, -5, -4.9
> Cc1nc2ccccn2c1P(=O)(N1CCCCC1)N1CCCCC1
  -2, -1, /, /, /, 0, -7, -1.0, 1, 1.4
> COc1cccc(NC(=O)COC(=O)c2c(F)cccc2Cl)c1
  1, -12, -15, -28, -2.0, 5, -1, -0.8, 6, 0.4
> O=C(c1cc(-c2ccc(F)cc2)on1)N1CCN(c2ccc(F)cc2)CC1
  2, -21, /, /, /, 5, 0, 1.1, -4, 2.0

Compound profiles, from the list above. Order of values: ALR H2O2 inh | T cruzi repl | Ecoli rRNA inh | Ecoli rRNA inh OD600 | Ecoli rRNA inh RFP | Calb FLC | Beta apoptosis | LANA-H2A inh | B2AR ag | A1 inh
`O=C(Nc1nnc(CCc2ccccc2)s1)c1ccccc1` is listed with -6 | 10 | 7 | 9 | 0.4 | 15 | 1 | 2.9 | -5 | -4.9
`CN(C)CCCN(C(=O)c1ccc(Br)s1)c1nc2cc3c(cc2s1)OCO3` is listed with 2 | 40 | 4 | 0 | 7.7 | -17 | 1 | -4.0 | 3 | 0.3
`O=C(Nc1ccc(-c2cn3c(n2)SCC3)cc1)c1ccco1` is listed with 4 | / | / | / | / | 2 | -10 | -4.2 | 12 | -1.1
`COc1ccc(OC)c(C2C(C(=O)O)c3ccccc3C(=O)N2C)c1` (configuration not stated) is listed with 3 | -7 | / | / | / | 5 | -2 | -0.8 | 5 | 0.6
`Cc1nc2sccn2c(=O)c1S(=O)(=O)NCc1ccccc1Cl` is listed with -7 | 0 | 6 | 10 | -5.3 | -1 | -2 | 4.0 | -3 | -0.3

Retrieved by structure from above:
Results follow in this order: ALR H2O2 inh, T cruzi repl, Ecoli rRNA inh, Ecoli rRNA inh OD600, Ecoli rRNA inh RFP, Calb FLC, Beta apoptosis, LANA-H2A inh, B2AR ag, A1 inh
> O=C(Nc1nnc(CCc2ccccc2)s1)c1ccccc1
  -6, 10, 7, 9, 0.4, 15, 1, 2.9, -5, -4.9
> Cc1cc(C(=O)COC(=O)c2ccc[nH]c2=O)c(C)n1C
  2, -31, 10, 10, 4.2, 17, -3, 1.0, -5, 0.2
> O=C(c1cc(-c2ccc(F)cc2)on1)N1CCN(c2ccc(F)cc2)CC1
  2, -21, /, /, /, 5, 0, 1.1, -4, 2.0
